High-throughput results: PubChem BioAssay, National Center for Advancing Translational Sciences (NCATS)
TRPV1 potentiator = enhances activation of the human vanilloid receptor TRPV1 | TRPV1-expressing cells, Fluo-8 calcium influx, capsaicin EC20 potentiation; host cell line not named in the record; control for the full effect not named in the record | potentiation, % at 8.33 µM | Q8NER1 | 0.02% of 320,000 active; active means potentiation above 80%; inconclusive means 30% to 80%; inactive means below 30%; also: 0% is about no effect
Target sequence (Q8NER1 whole entry, looked up): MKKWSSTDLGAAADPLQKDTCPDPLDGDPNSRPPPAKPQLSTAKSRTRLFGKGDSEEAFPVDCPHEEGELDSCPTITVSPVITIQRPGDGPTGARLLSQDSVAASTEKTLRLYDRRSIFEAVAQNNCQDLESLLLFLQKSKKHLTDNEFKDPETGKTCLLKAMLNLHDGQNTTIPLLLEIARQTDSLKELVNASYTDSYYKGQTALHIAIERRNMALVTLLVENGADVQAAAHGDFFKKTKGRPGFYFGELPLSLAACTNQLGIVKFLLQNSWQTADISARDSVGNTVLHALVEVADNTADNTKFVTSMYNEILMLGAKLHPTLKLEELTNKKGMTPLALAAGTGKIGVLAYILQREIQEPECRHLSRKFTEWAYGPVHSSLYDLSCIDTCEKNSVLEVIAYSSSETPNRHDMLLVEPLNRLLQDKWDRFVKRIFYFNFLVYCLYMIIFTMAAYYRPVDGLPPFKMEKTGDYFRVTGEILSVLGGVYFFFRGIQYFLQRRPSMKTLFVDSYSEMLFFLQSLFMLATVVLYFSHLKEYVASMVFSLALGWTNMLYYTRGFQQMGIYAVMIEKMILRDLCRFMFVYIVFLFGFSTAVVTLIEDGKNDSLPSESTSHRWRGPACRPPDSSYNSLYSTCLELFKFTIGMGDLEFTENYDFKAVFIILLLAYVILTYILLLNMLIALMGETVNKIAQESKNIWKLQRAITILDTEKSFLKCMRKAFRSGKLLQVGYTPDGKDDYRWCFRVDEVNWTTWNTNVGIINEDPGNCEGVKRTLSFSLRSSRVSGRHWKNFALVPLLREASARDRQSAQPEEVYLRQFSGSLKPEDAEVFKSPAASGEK
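Cells expressing TRPV1 were dye-loaded with Fluo-8 and read kinetically: 10 s baseline, 3 min after compound (agonist portion), then 2 min after EC20 capsaicin (allosteric enhancer portion). Calcium-bound dye fluorescence at 480/520 nm.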
Sfp inh = blocks B. subtilis Sfp PPTase activity; 3.5% of 310,000 active; Biochemical Sfp PPTase activity, qHTS; Potency, µM, without a hit: max response, negative = inhibition, actives largely listed as inhibitors; Q9F4F7; active = well fitted inhibition curve with a large enough effect; inconclusive = small, poorly fitted or top-dose-only effect, or another doubt; inactive = no such curve, though single readings can be large or run the other way;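 also: the enzyme is Sfp with the accession as filed and its product quenches rhodamine fluorescence; potency is read from the fitted curve at half-maximal effect; 0% = enzyme reaction without inhibitor and -100% = no enzyme wells; top concentration of the series not given in the record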
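Sfp 15 nM + cpd, 15 min RT; start w/ rhodamine-CoA 5 uM, BHQ-2-YbbR 12.5 uM (final); 50 mM Hepes pH 7.6, 10 mM MgCl2, 0.01% NP-40, 0.01% BSA; read 525/598 nm at 0 and 30 min.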
ClpP mod = qHTS Assay for Activators of ClpP. ATP-dependent Clp protease proteolytic subunit (Bacillus subtilis (strain 168)), P80244. purified B. subtilis ClpP, FRET peptide cleavage, 20 min. Potency, µM (titrated, usually from 57.5 µM), for the others: at the top dose activity change, negative = active. 1.9% of 340,000 active; active = well fitted falling curve with a large enough effect; inconclusive = small, poorly fitted or top-dose-only effect; inactive = no such curve, though single readings can be large or run the other way; also: potency is read from the fitted curve at half-maximal effect; the source files actives as falling curves though it sought activators and does not explain the sign; nearly all actives have a fitted effect of over 65% in size; many hits overshoot -100%
Target sequence (P80244 whole entry, looked up): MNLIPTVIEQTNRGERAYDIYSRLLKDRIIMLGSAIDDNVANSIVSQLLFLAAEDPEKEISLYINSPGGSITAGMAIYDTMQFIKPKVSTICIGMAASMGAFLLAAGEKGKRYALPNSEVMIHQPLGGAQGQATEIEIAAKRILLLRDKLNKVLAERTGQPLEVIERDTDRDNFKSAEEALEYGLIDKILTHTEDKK
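ClpP 10 microg/mL final, pH 8 Tris/KCl buffer with BSA, glycerol, Tween-20; compound pinned in; FRET-FV substrate; RT 20 min; Ex320/Em430; ΔFRET vs ADEP 5.8 microM, DMSO, no enzyme.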
Menin MLL FP FL = inhibitors of human menin-MLL interaction, wild-type MLL peptide; Fluorescence polarization, fluorescein-MLL peptide displacement from menin; FP activity change, % at 61.4 µM; 290,000 tested, under 10 active; inconclusive = falling polarisation curve, or a change in total fluorescence; inactive = total fluorescence flat and polarisation flat or rising; no compound was filed as active; the % refers to the polarisation; negative = inhibition;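 also: % of control where 0% means no effect; inhibitors lower the polarisation; unlabelled MLL peptide was the positive control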
CtBP-E1A blk = CtBP/E1A binding inhibition. AlphaScreen GST-E1A/His-CtBP binding, 1536-well; active compounds read low; control for the full effect not named in the record. activity change, % (test concentration not listed). 0.49% of 340,000 active. AID 651724; in the data active means activity change below about -65%; inconclusive means about -30% to -65%; inactive means above about -30%; also: % is scaled to controls: 0 for no effect and ±100 for the full control effect
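In 5 uL wells, 23 nL compound meets equimolar GST-E1A and His-CtBP (5X stock 125 nM each) for 2 h, 37 °C. Beads (5X, 50 ug/mL) then 1 h, 37 °C, dark.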
gsp antagonist = antagonizes gsp, the McCune-Albright syndrome mutation. 0.4% of 340,000 active. gsp-mutant cells, cAMP HTRF, 30 min; control for the full effect not named in the record. Potency, µM (series often up to 76.9 µM), without a hit: at the highest dose activity change, negative = inhibition, hits mostly inhibitors; active = falling curve of any shape with a large fitted effect; inconclusive = falling curve, mostly with a smaller effect; inactive = flat or rising curve; cell line not stated here;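 also: intracellular cAMP measured with PDE inhibitor Ro 20-1724 present during compound exposure; potency is read from the fitted curve at half-maximal effect; % is scaled to controls: 0 for no effect and ±100 for the full control effect; nearly all actives have a fitted effect of over 65% in size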
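HTRF cAMP measurement after 30 min RT detection following 30 min, 37C compound treatment alongside […] (added as 300 uM solution) in G418-selected cells seeded at 2000/well and grown 16–24 h.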
gsp ag = agonists of gsp mutant (McCune-Albright syndrome) | gsp mutant cells, cAMP HTRF, 30 min; control for the full effect not named in the record | Potency, µM (series often up to 76.9 µM), without a hit: top-dose activation (cAMP increase), hits mostly activators | 0.13% of 340,000 active | AID 624287; active = well fitted activation curve with a large enough effect; inconclusive = small, poorly fitted or top-dose-only effect, or another doubt; inactive = no such curve, though single readings can be large or run the other way; cell line not stated here;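 also: phosphodiesterase inhibitor Ro 20-1724 added with compounds to block cAMP breakdown; potency is read from the fitted curve at half-maximal effect; nearly all actives have a fitted effect of over 60% in size; about a fifth of the inactives were tested at one dose only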
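Cells stably selected in G418 were plated at 2000/well, grown 16-24 hr, then given compounds in DMSO with the PDE inhibitor […] (300 uM solution added) for 30 min at 37C; cAMP was read by HTRF.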
Numbers without * were called inactive; u = inconclusive; x = not tested or not shown; & = joins results of further samples; [ ] = another dose, or the depositor's remark.

Preview:
SMILES	TRPV1 potentiator	Sfp inh	ClpP mod	Menin MLL FP FL	CtBP-E1A blk	gsp antagonist	gsp ag
COc1ccc(NC(=O)CSc2nc(C)cc(C)n2)c([N+](=O)[O-])c1	-4	17%	x	2.7	-1	-4%	-1%[15.4 µM]
Cc1cccc(C(=O)NNC(=O)c2n[nH]c(=O)c3ccccc23)c1C	1	x	-1.4%	x	0	3%	-27%

The listing, previewed entries included:
SMILES	TRPV1 potentiator	Sfp inh	ClpP mod	Menin MLL FP FL	CtBP-E1A blk	gsp antagonist	gsp ag
COc1ccc(NC(=O)CSc2nc(C)cc(C)n2)c([N+](=O)[O-])c1	-4	17%	x	2.7	-1	-4%	-1%[15.4 µM]
Cc1cccc(C(=O)NNC(=O)c2n[nH]c(=O)c3ccccc23)c1C	1	x	-1.4%	x	0	3%	-27%
S=C(Nc1cccnc1)NC1CCCC1	-23	-5%	-2.4%	0.6	3	9%	-25%
CC(=O)Oc1ccc(/C=C/c2nc3ccccc3c(=O)o2)cc1	u	1%	x	16	-20	4%	4%
COc1ccc(C(=O)C2CCCN(C3Cc4ccccc4C3)C2)c(OC)c1 (centres undefined)	-13	17%	x	-1.1	-4	-5%	-10%[15.4 µM]
NC(=O)c1nsc(C(=O)N(Cc2cccnc2)C(C(=O)NCc2ccc(F)cc2)c2ccc(F)cc2)c1N (centres undefined)	-8	10%	x	-1.0	-3	-9%	13%
O=C(CCCn1c(SCc2cc(=O)n3ccccc3n2)nc2ccccc2c1=O)NCC1CCCO1 (centres undefined)	6	13%	x	0.6	0	-1%	10%[15.4 µM]
CN(C)CCCNc1ccc(S(N)(=O)=O)cc1[N+](=O)[O-]	18	23%	1.1%	-0.4	1	6%	-24%
Cc1cc(C(=O)N/N=C/c2cccnc2)n[nH]1	-4	6%	x	-1.8	5	6%	u
O=C(c1ccccc1)N1CCN(C(=O)c2nn3c(C(F)(F)F)cc(-c4ccco4)nc3c2Br)CC1	-14	-5%	-0.7%	-1.7	-14	-14%	-32%[inhibitor]
O=C(c1ccco1)N1CCN(C(=O)c2snc3ccc(Cl)cc23)CC1	6	-20%	-1.4%	2.2	0	-8%	-7%
N/C(CC(=O)Nc1ccc(F)cc1F)=N\OC(=O)c1cccs1	-3	6%	-0.4%	2.0	-14	2%	-9%
CCOC(=O)C1CCN(C(=O)c2ccc(OCC)c(OCC)c2)CC1	6	-7%	-1.0%	2.1	6	3%	-8%
CCN1C(=O)c2ccccc2S(=O)(=O)c2ccc(C(=O)NCc3cccnc3)cc21	-17	12%	1.9%	3.5	-2	-4%	-12%
CCC(C)NCCCOc1cc(Cl)ccc1Cl (centres undefined)	0	u	-1.7%	0.2	8	2%	20%
CCN(CC)c1ccc(/C=N/NC(=O)OC)c(O)c1	-8	-21%	-12%	-1.5	-14	2%	-4%
O=C(Nc1ccccc1N1CCCC1)C1CCN(S(=O)(=O)c2ccccc2)CC1	-5	x	-1.6%	x	-1	-23%	-45%[inhibitor]
Cc1noc(C)c1NC(=O)N(C)C[C@H]1Oc2ccc(NC(=O)Nc3ccc4c(c3)OCO4)cc2C(=O)N([C@H](C)CO)C[C@@H]1C	x	x	2.7%	x	65	11%	-8%
O=C1CCN(CCCN2CCC(=O)NC2=S)C(=S)N1	x	x	-1.5%	x	-10	x	33%
Cc1ccnc(NC2c3ccccc3C(=O)N2Cc2ccccc2Cl)c1 (centres undefined)	-19	15%	0.8%	-1.8	-1	-1%	-13%
COc1ccc(NC(=O)Nc2ccc3c(c2)N(C)C(=O)CS3)cc1Cl	-2	-9%	1.3%	-2.1	17	50µM*	-13%
C/C(=N\NC(=S)NCc1ccccc1)c1ccc(C(C)(C)C)cc1	0	6%	-3.4%	8.4	-11	-4%	-10%
Cc1cccc(NC(=O)C2CCCN(c3cnccn3)C2)c1 (centres undefined)	-11	14%	-15%	x	x	17%	20%
O=C(Nc1cccc(F)c1)N1CCCCCC1	3	14%	1.2%	1.4	1	5%	-22%
CCN(C(C)=O)N(CC)c1nc(Cl)nc(NC(C)C)n1	-2	-5%	-1.6%	2.1	-5	5%	1%
O=C(CN1CCN(c2ccc(O)cc2)CC1)N(C1CC1)C1CCS(=O)(=O)C1 (centres undefined)	-15	x	-9.3%	x	-3	-4%	-7%
CN1CCN(C(=S)c2ccc(-c3cccc([N+](=O)[O-])c3)o2)CC1	5	-16%	0.9%	-3.1	-22	2%	-40%[inhibitor]
COc1ccc(CNC(=O)C2CCCN(S(=O)(=O)c3cc(C)ccc3OC)C2)cc1 (centres undefined)	18	15%	1.6%	2.3	-7	-15%	-24%
NC1=NC(=O)/C(=C\c2cccnc2)S1	-4	8%	-1.2%	1.9	x	-8%	-30%[inhibitor]
S=C(Nc1ccc(Nc2ccccc2)cc1)NC1CCCCCC1	6	u	x	-0.8	u	-26%	16%[15.4 µM]
COCCN(C(=O)c1cc(-c2ccco2)nc2ccccc12)c1c(N)n(Cc2ccccc2)c(=O)[nH]c1=O	x	x	u	x	x	-4%	u
COc1ccc(CCNC(=O)CSc2nnc(CNC(=O)c3cccs3)o2)cc1OC	7	8%	-6.5%	-0.3	-2	5%	-4%
CCOC(=O)c1ccc2[nH]c(C)cc(=O)c2c1	1	7%	3.5µM*	-0.7	1	5%	6%
OCCNC(=S)NC1CCCCC1	1	19%	-5.1%	1.4	-5	3%	-31%[inhibitor]
COc1ccccc1NC(=O)N1CCCC(CNC(=O)c2ccccc2Cl)C1 (centres undefined)	2	4%	-3.0%	x	-3	45µM*	-4%
CN(C(=O)CSc1nc2cc(C(=O)O)ccc2c(=O)n1Cc1ccccc1)C1CCS(=O)(=O)C1 (centres undefined)	0	9%	-21%	0.4	x	8%	u
CCC(=O)Nc1cc(NC(=O)CSc2ncc(-c3ccc(F)cc3)n2Cc2ccco2)ccc1C	21	u	u	6.8	-7	1%	-41%[inhibitor]
CC(=O)C1=C(O)C(=O)N(c2cccnc2)C1c1cccc([N+](=O)[O-])c1 (centres undefined)	-26	1%	x	-0.1	-5	10%	u
COc1ccc(Cc2nnc(NC(=O)CSc3ccc(C)cc3)s2)cc1	-5	10%	1.7%	3.1	1	11%	-21%
CN(C(=O)COc1nnc(-c2cccs2)c(-c2cccs2)n1)c1ccccc1	22	-11%	-2.5%	1.5	0	-6%[15.4 µM]	-47%[inhibitor]
CC(=O)Cc1nsc(NC(=O)c2ccc(Br)o2)n1	-11	-2%	-0.7%	2.6	9	3%	13%
CN(CC(=O)Nc1ccc(Cl)cc1)C(=O)c1ccc(COc2ccccc2)cc1	4	x	2.4%	x	12	9%	14%
COc1ccccc1NC(=O)c1ccc(-n2cncn2)nc1	u	9%	x	-1.0	6	-3%	-3%
COc1ccc(C(=O)CC(c2ccccc2)C2CCCCC2=O)cc1 (centres undefined)	-4	20%	1.2%	5.0	11	-8%	-19%
O=c1[nH]c(Nc2ccccc2Cl)cc2ccccc12	x	x	4.8%	x	5	-17%	x
Cc1cc(CC(=O)O)c(C)cc1CC(=O)O	5	-4%	-3.5%	-1.5	6	0%	u
COc1ccc(-n2nc3cc(C)c(N)cc3n2)cc1Cl	9	79µM*	4.3%	0.0	x	4%	u
COc1cc(C(=O)OCC(=O)c2ccccc2)cc2c1OCCO2	-4	x	-1.5%	x	x	2%	5%
CCN(CC(=O)Nc1ccc(NC(C)=O)cc1)C(=O)c1cccc(-n2cccc2)c1	12	x	-0.6%	x	-6	4%	16%[15.4 µM]
O=C(Nc1ccccc1F)c1cc(S(=O)(=O)N2CCOCC2)ccc1N1CCOCC1	-15	x	x	x	3	-5%	26%[15.4 µM]
Cc1ccc(S(=O)(=O)CCSC(=N)N)cc1	-2	20%	x	-1.7	10	0%	0%[15.4 µM]
O=C(CSc1ncn[nH]1)NC1CCCc2ccccc21 (centres undefined)	-3	6%	x	0.4	x	-3%	-1%[15.4 µM]
N#Cc1nc(-c2ccc(OCc3ccccc3Cl)cc2)oc1NCCCn1ccnc1	u	-8%	x	-2.6	x	x	x
C=CCn1c(C)cc(C(=O)COC(=O)COc2ccccc2C#N)c1C	-10	1%	0.5%	-2.6	-8	-7%	15%
COC(=O)c1cc(S(=O)(=O)N2CCN(Cc3ccccc3)CC2)c[nH]1	-6	15%	-2.3%	-1.5	1	9%	-6%
CC(=O)N1c2ccc(S(=O)(=O)N3CCC(C(=O)NCCc4ccc(Cl)cc4)CC3)cc2CC1C (centres undefined)	-8	9%	-0.6%	x	-2	35µM*	u
Cc1ccc(NC(=O)c2sccc2C)cc1[N+](=O)[O-]	-1	-11%	-0.5%	2.9	-8	-8%	10%[15.4 µM]
CCc1nnc(NS(=O)(=O)c2ccc(N/C=C\C(=O)c3ccc4ccccc4c3)cc2)s1	5	-9%	-2.1%	5.0	6	-40%	-16%
COc1ccc(N(C(=O)CCl)C(C(=O)NC2CCCCC2)c2cccnc2)cc1 (centres undefined)	4	18%	-2.1%	2.0	-5	5%	-2%
Cc1cc(C(=O)NNC(=O)COc2ccccc2Cl)n[nH]1	-1	-5%	x	2.4	3	8%	u
New compounds follow.
SMILES	TRPV1 potentiator	Sfp inh	ClpP mod	Menin MLL FP FL	CtBP-E1A blk	gsp antagonist	gsp ag
COCCN(C(=O)CSc1nnc(-c2ccccc2C)n1C)c1c(N)n(Cc2ccccc2)c(=O)[nH]c1=O	1	6%	-1.8%	0.3	x	4%	-17%
COc1ccc2cc3c(N)nn(C(=O)c4ccccc4Cl)c3nc2c1	-10	-6%	-0.5%&0.3%	0.2	x	-24%	9%
CC(=O)Nc1ccc(NC(=O)C/C(C)=N/NC(=O)COc2cc(C)c(Br)cc2Br)cc1	u	-10%	x	-3.3	-5	-4%	-25%
Cc1cc(C)cc(N2CC(O)Cn3c2nc2c3c(=O)[nH]c(=O)n2C)c1 (centres undefined)	-12	0%	-4.3%	5.8	x	2%	1%
O=C(Nc1nc2c(F)cc(F)cc2s1)C1CCN(C(=O)c2ccc(F)cc2)CC1	20	x	x	x	1	-3%	5%[15.4 µM]
Cc1ccc(-c2nnc(CSc3nnc(C)s3)o2)cc1	-3	10%	0.4%	-0.7	3	12%	22%
COc1ccccc1NC(=O)c1ccccc1SC	17	9%	-4.5%	7.1	4	1%	-36%
O=C(O)Cn1cc(/C=C2/NC(=O)N(c3ccc(Cl)cc3)C2=O)c2ccccc21	u	-10%	-3.2%	20	4	1%	-29%
